# GIV Gai3 FP: inhibitors of GIV peptide binding to Galpha-i3, primary screen, biochemical, fluorescence polarization, FITC-GIV GBA peptide, rat Galphai3. Guanine nucleotide-binding protein G(i) subunit alpha-3 (Rattus norvegicus), P08753. 210,000 tested, 0.42% active. 90 min; hits give low values; scaled: aluminum fluoride 0%, vehicle 100%. percent of control (FP), % (concentration not given with the values);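 active means replicate mean at 85% of control or lower, very high polarization wells dropped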;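 further: wells of about 15 µL received 100 nL stock; the first replicate is given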
# Target sequence (P08753 whole entry, looked up): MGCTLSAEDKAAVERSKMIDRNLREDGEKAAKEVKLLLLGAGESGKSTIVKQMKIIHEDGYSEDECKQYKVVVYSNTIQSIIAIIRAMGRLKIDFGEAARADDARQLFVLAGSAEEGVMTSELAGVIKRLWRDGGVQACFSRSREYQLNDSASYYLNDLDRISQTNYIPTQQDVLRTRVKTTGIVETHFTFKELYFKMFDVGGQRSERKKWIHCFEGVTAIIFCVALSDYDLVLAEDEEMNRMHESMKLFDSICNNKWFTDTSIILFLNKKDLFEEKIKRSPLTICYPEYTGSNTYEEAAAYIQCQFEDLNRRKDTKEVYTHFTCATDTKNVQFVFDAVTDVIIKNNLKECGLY
# HCMV NEC inh: inhibitors of HCMV UL50-UL53 interaction, biochemical, HTRF; normalized percent inhibition; inhibition, % (test concentration not listed); 190,000 tested, 0.15% active; AID 1918969, 2023;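 active means both replicates at 50% or more, plus weaker picks with an unusually low signal ratio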;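 further: stock transfer was 100 nL into about 20 µL; 0% = negative control wells and 100% = wells with untagged competitor protein; inactives centre near -12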
# Sa growth inh: S. aureus growth inhibition at 42 and 30 °C, primary screen, LtaS inhibitor project, RN4220, two temperatures; OD600, 20 h, 42 °C; hits give low values; relative growth, % (test concentration not listed); 170,000 tested, 0.53% active; AID 720641, 2013;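 active means growth at 42 °C up to 50% and 20 or more points under that at 30 °C, or under 10% at both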;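 further: 300 nL library stock went into each well; scaled to the means of positive and negative controls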
# Sa growth inh second temp: second read-out of Sa growth inh, no call of its own (marks repeat the call); relative growth, %; measured here: growth at 30 °C;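 optical density after 20 h as mean of two plates; 100% = untreated growth and lower means inhibition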
# The depositor's hits bear a star; · = no result given.
SMILES,GIV Gai3 FP,HCMV NEC inh,Sa growth inh,Sa growth inh second temp
O=C(c1ccc2c(c1)OCCO2)c1ccccc1Cl,106,·,101,70
COc1ccc(NC(=O)Cn2cc(C(=O)c3ccccc3)c(=O)c3cc(OC)ccc32)c(OC)c1,105,-16,94,89
Cc1nc2ccccn2c1-c1ccnc(SCC(=O)Nc2ccccc2)n1,93,5,80,81
OCCN1CCN(C2=Cc3ccccc3C2)CC1,105,-8,97,82
COc1cccc(CNS(=O)(=O)c2c(C(=O)N3CCC(C)CC3)c(C)n(C)c2C)c1,101,·,85,86
CCOc1ccc(S(=O)(=O)NCCc2sc3nc(-c4ccc(C)cc4)nn3c2C)cc1,102,·,102,102
Cc1ccc2c(c1)N(C(=O)N1CCC(C(=O)NCc3ccco3)CC1)CC(C)O2 (stereo not given),103,-6,103,99
COc1ccccc1CN=C(C)c1ccccc1O,105,1,101,99
Cn1cc(S(=O)(=O)N2CCCCCC2)cc1C(=O)NCc1ccc(F)cc1,99,·,89,86
COc1cccc(CNC(=O)C2CCN(S(=O)(=O)N3CCC(C)CC3)CC2)c1,102,·,108,97
COc1ccc(NC(=O)Cn2c(=O)n(-c3ccccc3)c(=O)c3c4c(sc32)CCCC4)cc1OC,103,·,142,88
CCOc1ccc(C(=O)N2CCCCC2CCN2CCOCC2)cc1 (stereo not given),99,-20,89,87
CCc1ccccc1NC(=O)C1CCN(S(=O)(=O)c2c(C)noc2/C=C/c2ccco2)CC1,112,-13,106,90
Cc1c(C(=O)Nc2ccc(-c3nc4cc(Cl)ccc4o3)cc2)oc2ccccc12,111,-6,102,100
O=C(COC(=O)C1CCN(C(=O)c2ccc(Cl)cc2)CC1)NCc1ccco1,·,-29,94,90
CC(C)c1ccccc1NC(=O)COC(=O)c1ccc(N)cc1,·,-43,92,85
Cn1nnc2cc(C(=O)N3CCc4ccccc43)ccc21,103,1,·,·
O=C(NCCc1csc2nc(-c3cccc(F)c3)nn12)c1ccc2c(c1)OCO2,102,-10,·,·
Cc1c(Cl)cccc1NC(=O)CCCn1nc(C)c2sc3ccccc3c2c1=O,109,-12,115,86
Cc1cc(C)c2[nH]c(C)c(CN(C)C3CCCCC3)c(=O)c2c1,·,-20,85,86
CCOC(=O)c1sc(NC(=S)Nc2ccc(N3CCOCC3)c3nonc23)c(C(=O)OCC)c1C,106,4,97,97
S=C(N/N=C\c1ccn[nH]1)Nc1ccc(Cl)cc1,111,-5,95,73
CCCn1nnnc1NCc1cc(Cl)c(OCc2cccs2)c(OC)c1,104,-12,93,80
CCC(CC)C(=O)Nc1nnc(S(=O)(=O)N2CCCCCC2)s1,103,3,91,89
O=C(O)COc1ccc(-c2nnco2)cc1,·,-18,84,86
Cc1cc(NC(=O)c2ccc(S(=O)(=O)N3CCCC3)cc2)nc2c1c(=O)oc1ccccc12,104,5,86,84
Cc1ccc(CC(C#N)Sc2nnc(Cc3ccccc3)o2)cc1 (stereo not given),·,-35,107,98
O=C(NCCS(=O)(=O)N1CCN(c2ccc(F)cc2)CC1)C(c1ccccc1)c1ccccc1,110,·,111,100
COc1ccc(Cc2nnc3sc(-c4cc(C)nc5ccccc45)nn23)cc1OC,110,-38,·,·
COc1cc(CNC(=O)Cn2c(=O)c3cccn3c3ccc(F)cc32)cc(OC)c1OC,104,-19,88,88
CCN(CC)CCNCc1ccc(-c2ccc(Cl)cc2)o1,107,-8,·,·
Cc1ccc(C)c(N2C(=O)CC3CS(=O)(=O)CC32)c1 (stereo not given),·,4,102,89
COc1ccc(C(=O)Nc2cccc(-c3nc(-c4ccccc4)no3)c2)cc1,108,-23,·,·
COc1ccc(/C=C2\N=C(SCC(=O)NCc3ccco3)N(c3cc(C)cc(C)c3)C2=O)cc1,·,-26,94,93
O=C(NCc1ccncc1)c1cc(-c2ccc3c(c2)OCO3)nc2ccccc12,102,-49,·,·
COc1ccc(OC)c(NC(=O)CCCn2nc(C)c3nn(-c4ccccc4)c(-n4cccc4)c3c2=O)c1,104,5,·,·
Cc1ccccc1-c1noc2ncnc(NCCCO)c12,97,-30,96,93
O=C(O)Cc1n[nH]c(=S)n1Cc1ccccc1,·,-1,104,96
N#CCNC(=O)Cc1ccccc1,·,2,76,65
Cc1cccc(Nc2nc(C(N)=O)c(NC(=O)c3ccc(F)cc3)s2)c1C,107,-20,·,·

# 21 successive records out of the list so far, for reference:
SMILES,GIV Gai3 FP,HCMV NEC inh,Sa growth inh,Sa growth inh second temp
Cc1cc(C)c2[nH]c(C)c(CN(C)C3CCCCC3)c(=O)c2c1,·,-20,85,86
CCOC(=O)c1sc(NC(=S)Nc2ccc(N3CCOCC3)c3nonc23)c(C(=O)OCC)c1C,106,4,97,97
S=C(N/N=C\c1ccn[nH]1)Nc1ccc(Cl)cc1,111,-5,95,73
CCCn1nnnc1NCc1cc(Cl)c(OCc2cccs2)c(OC)c1,104,-12,93,80
CCC(CC)C(=O)Nc1nnc(S(=O)(=O)N2CCCCCC2)s1,103,3,91,89
O=C(O)COc1ccc(-c2nnco2)cc1,·,-18,84,86
Cc1cc(NC(=O)c2ccc(S(=O)(=O)N3CCCC3)cc2)nc2c1c(=O)oc1ccccc12,104,5,86,84
Cc1ccc(CC(C#N)Sc2nnc(Cc3ccccc3)o2)cc1 (stereo not given),·,-35,107,98
O=C(NCCS(=O)(=O)N1CCN(c2ccc(F)cc2)CC1)C(c1ccccc1)c1ccccc1,110,·,111,100
COc1ccc(Cc2nnc3sc(-c4cc(C)nc5ccccc45)nn23)cc1OC,110,-38,·,·
COc1cc(CNC(=O)Cn2c(=O)c3cccn3c3ccc(F)cc32)cc(OC)c1OC,104,-19,88,88
CCN(CC)CCNCc1ccc(-c2ccc(Cl)cc2)o1,107,-8,·,·
Cc1ccc(C)c(N2C(=O)CC3CS(=O)(=O)CC32)c1 (stereo not given),·,4,102,89
COc1ccc(C(=O)Nc2cccc(-c3nc(-c4ccccc4)no3)c2)cc1,108,-23,·,·
COc1ccc(/C=C2\N=C(SCC(=O)NCc3ccco3)N(c3cc(C)cc(C)c3)C2=O)cc1,·,-26,94,93
O=C(NCc1ccncc1)c1cc(-c2ccc3c(c2)OCO3)nc2ccccc12,102,-49,·,·
COc1ccc(OC)c(NC(=O)CCCn2nc(C)c3nn(-c4ccccc4)c(-n4cccc4)c3c2=O)c1,104,5,·,·
Cc1ccccc1-c1noc2ncnc(NCCCO)c12,97,-30,96,93
O=C(O)Cc1n[nH]c(=S)n1Cc1ccccc1,·,-1,104,96
N#CCNC(=O)Cc1ccccc1,·,2,76,65
Cc1cccc(Nc2nc(C(N)=O)c(NC(=O)c3ccc(F)cc3)s2)c1C,107,-20,·,·

# The list goes on:
SMILES,GIV Gai3 FP,HCMV NEC inh,Sa growth inh,Sa growth inh second temp
N#Cc1c[nH]n2c(NC3CCCC3)c(-c3cccc(Br)c3)nc12,101,-16,113,77
O=S(=O)(c1cccs1)N1CCN(c2ccccc2Cl)CC1,101,-8,111,100
O=C(c1cc(-c2ccc3c(c2)OCO3)on1)N1CCCC1c1ccc(F)cc1 (stereo not given),102,2,·,·
CCCc1cc(=O)[nH]c(N/N=C/C=C\c2ccccc2)n1,98,-74,120,98
CCOc1ccc(CNC(=O)Cn2ncc3c(=O)oc4ccccc4c32)cc1,95,4,117,101
Cc1ccc(NC(=O)CCCn2c(=O)c3cccn3c3ccccc32)c(C)c1,98,-13,107,88
CSc1ccccc1NC(=S)Nc1cccnc1,·,-8,84,80
COc1ccc(N=C2c3ccccc3-c3nc4ccccc4nc32)cc1,·,-50,104,92
CCN(CC)S(=O)(=O)c1ccc(C(=O)Nc2nc3c(s2)CN(C)CC3)cc1,97,7,·,·
CCOc1ccc(NC(=O)C(CC)Sc2nc3ncccc3[nH]2)cc1 (stereo not given),102,-10,·,·

# Rewritten with two lines to a compound: two of the compounds above.
# Each structure is followed by: GIV Gai3 FP	HCMV NEC inh	Sa growth inh	Sa growth inh second temp
- N#Cc1c[nH]n2c(NC3CCCC3)c(-c3cccc(Br)c3)nc12
    101	-16	113	77
- O=S(=O)(c1cccs1)N1CCN(c2ccccc2Cl)CC1
    101	-8	111	100

# More compounds:
SMILES,GIV Gai3 FP,HCMV NEC inh,Sa growth inh,Sa growth inh second temp
CCCC1=C(C(=O)OCC)C(c2cc(Br)c(O)c(OC)c2)NC(=O)N1 (stereo not given),·,-6,87,70
Cc1[nH]c2ccccc2c1C(=O)Cn1nnc(-c2cccc(C(F)(F)F)c2)n1,·,-6,99,91
Cc1nc2ccccc2c(=O)n1NC(=O)c1c(O)c2c(n(CC(C)C)c1=O)CCCC2,99,-11,54,34
Cc1nc2cccnc2n1C1CCN(C(=O)c2ccccc2)CC1,102,-36,·,·
COc1ccnc2cc(Cl)ccc12,102,-19,111,101
O=C(CSc1ccccc1)N1CCC(N2CCN(Cc3ccc(F)cc3)C(=O)C2=O)CC1,98,-1,·,·
COc1ccc(S(=O)(=O)N2CCc3ccccc32)cc1C(=O)N1CCC(C)CC1,·,-22,92,78
Cc1ccccc1-n1c(SCc2cccc(C#N)c2)nnc1-c1cc2occc2n1C,99,-4,100,89
CC(C)c1nc(CNC(=O)c2coc(C3CC3)n2)no1,102,-6,·,·
O=C(O)c1ccc(N2CCCC2=O)cc1,99,-18,94,91
NC(=O)Nn1c(CCC(=O)O)ccc1-c1ccc(Cl)cc1,97,-4,104,86
Cc1nn(C(=O)Nc2cccc(Br)c2)c2ccccc12,97,-9,·,·
NC(=O)c1c(NC(=O)C2CCCN(C(=O)Cc3ccccc3F)C2)sc2c1CCCC2 (stereo not given),106,-9,·,·
CCNC(=O)N(Cc1ccccc1)Cc1cccnc1,102,0,82,88
CCOc1ccccc1C(=O)NCC(c1cccs1)S(=O)(=O)c1ccc(F)c(C)c1 (stereo not given),101,·,93,78
O=C1c2ccccc2S(=O)(=O)N1C(=O)c1cc(F)c(F)c(F)c1F,·,-23,140,85
CCN(CC)CC(=O)N1c2ccccc2NC(=O)CC1C (stereo not given),100,-7,96,93
Cc1ccc(C)c(S(=O)(=O)c2nnn3c2nc(N2CCCC2)c2sccc23)c1,103,·,120,86
O=C(c1sc2ncccc2c1-n1cccc1)N1CCN(c2ncccn2)CC1,103,22,·,·
COC(=O)Nc1ncc(CN2CCC(C)CC2)s1,·,-3,111,84
Cc1cccc2c1-c1sc(C(=O)Nc3ccccc3C(N)=O)cc1CO2,101,-32,100,87
CC(C)C(C#N)N1CCNCC1 (stereo not given),·,-6,89,79
Cc1ccc(CSCC(=O)N2CCN(c3ccc(F)cc3)CC2)cc1,101,·,109,88
CC1=[N+](C)c2cc(C(F)(F)F)ccc2C1(C)C,121,-45,81,80
N#CCN1CCC(c2cc(-c3ccc(Cl)cc3Cl)n[nH]2)CC1,105,-11,·,·
O=C1/C(=C/N(C(=O)c2cccc(Cl)c2)c2ccc(Cl)cc2)Sc2ccccc21,106,-10,·,·
O=C(NC1CCCC1)C(Cc1ccccc1)n1cccc1 (stereo not given),103,·,79,84
CCc1nn(C(C)C(=O)N(C)Cc2ccccc2)c(=O)c2cc3occc3n12 (stereo not given),102,·,103,86
Cc1oc(N)c(S(=O)(=O)/C(C#N)=C/c2cc(Cl)cc(Cl)c2)c1C,135,-33,99,83
OCCNC(=S)Nc1ccc(Oc2ccccc2)cc1,100,-9,102,96
CCCc1ccccc1OCCNC(=O)c1cc(=O)n(C)c(=O)n1C,100,-19,92,82
CCOc1ccccc1C(=O)N(Cc1cc(OC)c(OC)c(OC)c1)c1ccccn1,106,-12,96,80
CCCCOc1ccc(NC(=O)c2cc(=O)c3cc(Cl)ccc3o2)c2cccnc12,99,-1,·,·
O=C(CN1C(=O)C2(SCC(=O)N2c2ccc(F)c(F)c2)c2ccccc21)Nc1ccccc1F (stereo not given),104,·,123,93
CC(C)(C)OC(=O)N1CCN(S(=O)(=O)c2ccc(N3C(=O)CC4(CCCC4)C3=O)c(Cl)c2)CC1,109,-20,98,95
NC(=O)c1cc2cc(Br)ccc2oc1=Nc1ccc(C(F)(F)F)cc1,111,-14,·,·
CCOC(=O)CSc1nnc(CNc2ccc(F)cc2)o1,101,-14,98,88
COC(=O)c1cnc(Oc2c(Cl)cc(N)cc2Cl)cc1C(F)(F)F,104,-40,74,74
Cc1c(C)n(Cc2ccc(F)cc2)c2ccc(C(=O)N3CCN(c4ncccn4)CC3)cc12,99,5,103,108
C=CC(C)n1c(=O)c2c(nc3n2CCN3c2ccc(Cl)cc2)n(C)c1=O (stereo not given),104,-9,87,87
CCCc1cnc2c(c1SCC(=O)Nc1ccccc1OCC)c(=O)n(C)c(=O)n2C,106,·,146,97
CCOc1ccc(NC(=O)c2oc3ccccc3c2NC(=O)Cc2ccc(F)cc2)cc1,103,-44,85,84
CC(=O)N(C)c1ccccc1C(=O)O,99,1,100,95
COc1ccc(-c2cc(C(F)(F)F)n3nc(C(=O)NCCCN4CCOCC4)c(Cl)c3n2)cc1OC,98,-56,·,·
CC(C)CNCC1COC2(CCCCC2)O1 (stereo not given),104,-5,102,97
Cc1ccc2nc(NC(=O)Nc3ccccc3)sc2c1,105,-2,100,102
